RanGTP-Impb inh – inhibitors of RanGTP-importin-beta interaction, primary screen, biochemical, FRET, CFP-Ran, YFP-importin-beta, homogeneous. cell-free CFP-Ran/YFP-importin-beta FRET ratio. inhibition, % (test concentration not listed). 300,000 tested, 1.1% active. AID 2216;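 active = most replicates above 15%; inconclusive = exactly half above 15%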;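 also: 0% = DMSO wells and 100% = Ran loaded with GDP instead of GTP; wells of about 40 µL received 100 nL stock; the first replicate is given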
Beta2AR agonist – agonists of human beta-2 adrenergic receptor inducing internalization | P07550 | Am2.2-beta2AR cells, FAP receptor internalization, flow cytometry; reference of the scale not given here | response, % (test concentration not listed) | 340,000 tested, 0.43% active;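 active = response above a set limit, near 3 SD of response in nonfluorescent compounds, cut at about 42% in these data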;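 also: stock transfer was 100 nL into about 11 µL; a reference agonist was the positive control; negative values mostly stem from fluorescent compounds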
Target sequence (P07550 whole entry, looked up): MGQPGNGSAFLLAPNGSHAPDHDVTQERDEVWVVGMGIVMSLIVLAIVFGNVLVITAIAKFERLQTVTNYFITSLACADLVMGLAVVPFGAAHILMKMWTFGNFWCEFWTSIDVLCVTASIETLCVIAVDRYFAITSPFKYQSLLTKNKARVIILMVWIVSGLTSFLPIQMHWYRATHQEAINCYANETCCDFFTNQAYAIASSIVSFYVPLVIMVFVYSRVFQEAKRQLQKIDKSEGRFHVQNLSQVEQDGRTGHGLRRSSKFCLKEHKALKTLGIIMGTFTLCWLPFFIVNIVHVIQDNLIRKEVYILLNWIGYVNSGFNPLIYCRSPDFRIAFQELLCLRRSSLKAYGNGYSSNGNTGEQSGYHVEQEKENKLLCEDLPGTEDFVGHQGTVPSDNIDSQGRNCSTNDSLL
UCH37 inh – inhibitors of human deubiquitinating enzyme UCH37 | 330,000 tested, 0.33% active | Q9Y5K5 | purified proteasome/UCH37, Ub-AMC cleavage fluorescence | inhibition, % (concentration not given with the values) | AID 588478;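 active = mean of two replicates above 20%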;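 also: 0% = compound-free wells with enzyme and 100% = wells lacking proteasome; stock transfer was 100 nL into about 20 µL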
Target sequence (Q9Y5K5 whole entry, looked up): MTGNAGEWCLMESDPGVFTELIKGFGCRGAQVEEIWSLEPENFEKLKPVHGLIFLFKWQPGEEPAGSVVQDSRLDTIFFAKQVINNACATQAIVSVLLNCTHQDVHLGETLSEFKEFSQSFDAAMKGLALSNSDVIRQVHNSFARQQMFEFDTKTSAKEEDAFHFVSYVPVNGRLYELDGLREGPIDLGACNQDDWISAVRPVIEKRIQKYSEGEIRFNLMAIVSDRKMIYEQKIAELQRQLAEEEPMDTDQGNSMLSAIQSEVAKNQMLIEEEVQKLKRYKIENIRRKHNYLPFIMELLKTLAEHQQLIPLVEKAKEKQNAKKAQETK
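Assay system: Proteasome-bound UCH37. Buffer or medium: pH 7.4 Tris-HCl (50 mM) with ovalbumin, ATP-MgCl2, DTT. Incubation: 30 min preincubation with enzyme, 25 min cleavage at room temperature. Measured by: fluorescence, ex 355 nm, em 460 nm. Read-out basis: percent inhibition. Control set: wells without proteasome as full block, compound-free enzyme plus substrate as uninhibited.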
Bfl-1 A1 inh – inhibitors of the anti-apoptotic protein A1, read as caspase activation; 330,000 tested, 0.066% active; MEF A1-2A-BIM cells, Caspase-Glo 3/7 luminescence, 3 h; percent of clofoctol response, vehicle zero; caspase activation, % (no concentration beside the values);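 active = over half of replicate activation scores above 10%, or exactly half above 10 with the replicate mean above 10; inconclusive = replicate mean below 10 yet half the replicates above 10; inactive = over half of replicates below 10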;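 also: wells of about 30 µL received 50 nL stock; many hits fall short of the cut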
Beta apoptosis – beta cell apoptosis inhibition; protection from apoptosis, % (test concentration not listed); 300,000 tested, 0.8% active; INS-1E cytokine-induced death, ATP luminescence, 48 h; percent of positive-control rescue, neutral wells zero;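 active = all replicates at 75% or more, or half of them and the mean; inconclusive = half reach 75% but not the mean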;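 also: 0% = cytokine-treated negative control wells and 100% = positive control rescue; higher means more ATP so stronger rescue from cytokine killing; wells of about 40 µL received 100 nL stock; the first replicate is given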
T cruzi repl – blocks replication of Trypanosoma cruzi. AID 1885. 300,000 tested, 1.4% active. inhibition, % (concentration not given with the values). T. cruzi beta-gal in NIH3T3, luminescence, 90 h;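 active = mean inhibition across valid replicates above about 55%, limit read from the data; inconclusive = mean below that limit but half or more replicates reach it; inactive = mean below it, under half of replicates reach it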;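 also: signal also drops with host cell toxicity which is not excluded here; 0% = plate median of DMSO wells and 100% = zero luminescence signal; higher percent means less beta-gal luminescence so fewer parasites; stock transfer was 50 nL into about 50 µL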
LANA-H2B inh – blocks KSHV LANA binding to histone H2A/H2B | AID 2629 | Q9QR71 | 320,000 tested, 0.6% active | cell-free LANA-H2A/H2B peptide, fluorescence polarization | inhibition, % (no concentration beside the values); in the data active = inhibition mostly above about 10%, no sharp cut-off; inactive = mostly below about 6.7%;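 also: stock transfer was 7.5 nL into about 10 µL; 0% = median of vehicle wells and 100% = median of positive control wells; one replicate is shown; the record names a cut of 25% in any replicate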
Calb FLC – C. albicans growth modulation with fluconazole. C. albicans CaCi-2 (fluconazole-resistant clinical isolate) + fluconazole, Alamar Blue growth, 48 h. growth inhibition, % (no concentration beside the values). 300,000 tested, 0.57% active. AID 1979;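 active = most replicates above 75%; inconclusive = exactly half above 75%; inactive = most below 75%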;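 also: all wells also contain fluconazole at 8 µg/ml as a sub-toxic cotreatment; 0% = median of DMSO wells and 100% = median of geldanamycin control wells; wells of about 8 µL received 7.5 nL stock; the first replicate is given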
Numbers without * were called inactive; ? = inconclusive; / = no result given.

Fields: RanGTP-Impb inh, Beta2AR agonist, UCH37 inh, Bfl-1 A1 inh, Beta apoptosis, T cruzi repl, LANA-H2B inh, Calb FLC
1. CCNC(=O)c1ccc(C2SCC(=O)N2CCc2ccccc2)cc1 (stereo unspecified)
→ 1.7, -10, 6.1, -0.4, 0, -4, 0.1, -24
2. COc1ccc(S(=O)(=O)N2CCCN(CC(=O)Nc3ccc(NC(C)=O)cc3)CC2)cc1
→ -2.7, -12, 0.0, 0.3, -5, -8, -8.5, -1
3. COC(=O)CC1C(=O)NCCN1C(=O)CSc1nnc(Nc2ccc(OC)cc2)s1 (stereo unspecified)
→ -0.4, 2, 2.2, -0.5, -4, -12, 7.2, 9
4. O=C(NCCN1CCCOC1=O)C(=O)NCCN1CCCOC1=O
→ 4.3, 2, -0.2, 0.5, -5, -2, 1.5, 0
5. CCCc1cc(C(=O)Nc2ccn(Cc3ccc(C)cc3)n2)no1
→ ?, -2, -1.4, 0.0, -2, 27, 0.1, 1
6. O=C(Nc1ccccc1)Nc1ccccc1NS(=O)(=O)c1cccs1
→ 3.6, 0, 1.9, 1.0, -3, -13, -0.1, -6
7. O=C(NCc1ccco1)c1cnc2n(c1=O)CCS2
→ 7.6, /, 2.6, -0.7, -4, 1, -1.5, 0
8. CC(C)Cn1c(N)c(C(=O)COC(=O)c2cc(S(=O)(=O)N3CCOCC3)ccc2Br)c(=O)n(C)c1=O
→ /, 10, 3.7, -0.8, 3, /, 4.9, /
9. O=C(c1ccccc1[N+](=O)[O-])N1CCCN(C(=O)c2ccccc2[N+](=O)[O-])CC1
→ -1.8, -5, -0.1, 0.3, -2, -18, -1.2, 1
10. N#Cc1c(NC(=O)CCn2cnc3ccccc3c2=O)oc(-c2ccccc2)c1-c1ccccc1
→ -0.1, 11, -0.9, -0.9, 4, 3, -8.5, 25
11. COC(=O)c1cc(S(=O)(=O)N2CCN(c3ccc(F)cc3)CC2)cn1C
→ -0.9, 1, 3.6, -1.0, -3, -7, -4.8, 39
12. O=C(O)c1ccc(-n2nnnc2SCc2ccccc2Br)cc1
→ 0.4, 3, -0.4, 0.3, -3, -7, -0.2, 11
13. Cc1cccc(OCCN2C(=O)C(=O)c3cccc(C)c32)c1
→ 0.2, -6, -0.6, 1.9, /, 11, -1.5, -22
14. COc1ccc(-c2csc(NC(=O)CCNC(=O)c3ccco3)n2)cc1OC
→ /, 11, -1.4, -0.3, 4, /, 1.5, /
15. O=C(NNc1ncnc2ccccc12)c1cccc(Cl)c1
→ -4.3, -8, 0.6, -2.6, -9, 5, -0.2, 0
16. Cc1oc2ccc(OC(=O)N3CCOCC3)cc2c1C(=O)OC(C)C
→ 5.5, 1, 1.8, 0.0, 6, 23, 0.0, 18
17. CCOc1ccc(C(=O)NC2CCN(C(=S)NCc3ccco3)CC2)cc1
→ -2.0, 3, 3.1, -0.7, 6, 4, 1.8, -1
18. COc1ccc(OCC(=O)Nc2ccc(S(=O)(=O)Nc3cc(C)on3)cc2)cc1
→ -0.9, 5, 2.6, 0.0, -7, 3, /, -9
19. CCC1SC2=NC(C)=C(C(=O)OC)C(c3ccc(C)cc3)N2C1=O (stereo unspecified)
→ -4.1, -4, 5.2, 1.3, -5, 2, 0.5, -2
20. Cc1cc(C)nc(NC(=O)c2ccc(Cl)cc2)n1
→ -8.0, 7, 2.3, 1.0, 2, -15, 5.4, 15
21. O=C(COC(=O)/C=C/c1ccccc1)Nc1cccc(Oc2ccccc2)c1
→ 1.6, -6, -0.7, 0.1, 3, -20, 3.0, ?
22. COc1ccccc1CNC(=O)C(C)n1nc(C)c2c(C)n(-c3ccccc3)nc2c1=O (stereo unspecified)
→ -2.4, -6, 2.4, ?, 8, -11, 4.6, -7
23. CSc1ccccc1NC(=O)c1ccccc1
→ 2.1, 8, 3.1, 0.5, 0, 5, 0.4, 20
24. Cc1c(Cl)c([N+](=O)[O-])nn1CC(=O)N1CCCC1
→ 2.3, 3, 6.3, -0.4, 0, 16, 2.4, -13
25. CC1(C)Cc2c(c(N3CCOCC3)nc3sc4c(NCc5ccco5)nnnc4c23)CS1
→ 2.7, 4, 1.8, 0.2, 6, 40, 1.1, 17
26. COc1ccc(-c2nnn(CC(=O)N(CCN3CCOCC3)C(C(=O)NC3CCCC3)c3ccco3)n2)cc1 (stereo unspecified)
→ 6.9, -6, 3.0, -0.4, 9, 3, 6.7, 13
27. CCCCn1c(N)c(N(C)C(=O)c2cc3c(F)cccc3s2)c(=O)[nH]c1=O
→ /, -5, 2.5, 0.4, 0, /, 1.1, /
28. COC(=O)c1ccsc1NC(=O)CCc1ccccc1
→ 0.8, 4, 0.5, -0.3, -3, 8, -3.1, 17
29. O=S1(=O)CCOC[C@H](CC2CCCCC2)N1Cc1ccc(F)cc1
→ -0.5, -3, 2.2, 1.5, 1, -5, -9.3, 11
30. CCOC(=O)c1ccccc1NC(=O)C1CCN(c2ncnc3sc(C)c(C)c23)CC1
→ -0.7, 1, 0.5, 0.3, 6, 27, 1.6, 10
31. CC1(C)CC2(CC(C)(C)NC(=O)N2)NC(=O)N1
→ 1.5, 0, -1.7, 0.2, -8, -3, -0.5, 2
32. COc1ccccc1OCC(=O)Nc1ccc2c(c1)n(C)c(=O)n2C
→ 0.2, -2, -2.5, 0.8, -8, -7, -4.7, 11
33. Clc1cc(Cl)c(Cl)cc1Cl
→ /, -6, 0.2, 0.3, 9, /, 0.6, /
34. Cc1ccc(S(=O)(=O)n2c3ccc(Cl)cc3c3nc(C)sc32)cc1
→ -0.8, 7, 0.2, /, /, 31, /, -6
35. O=C(COC(=O)c1ccc(O)cc1O)c1ccc2c(c1)OCCO2
→ /, -3, 0.6, -1.3, 4, /, -2.4, /
36. COc1ccc([C@H]2Oc3cc(O)cc(O)c3C(=O)C2[C@@H]2C(=O)c3c(O)cc(O)cc3O[C@@H]2c2ccc(OC)cc2)cc1 (stereo partly specified)
→ ?, /, /, 0.3, 8, -3, -0.3, 27
37. Cn1c(SCc2cc(=O)[nH]c3ccccc23)nnc1-c1ccco1
→ 1.5, -3, -0.7, 0.1, -3, -1, -1.6, -3
38. O=C(Nc1nc2c(s1)CCCC2)c1ccc2ncsc2c1
→ 7.7, -4, -2.6, -1.9, 14, 10, 4.9, 0
39. CCOc1nc2cnccc2n(CC(=O)Nc2cccc(C)c2)c1=O
→ -0.8, -2, 3.6, 1.6, /, -9, 2.4, -9
40. N#Cc1cc2c(nc1S(=O)(=O)Cc1ccccc1)CCCC2
→ -1.8, -6, 1.9, 0.0, -4, -3, 1.6, 1
41. Cc1cccc(COCC(Cc2ccccc2)N2CCN(C(=O)c3ccc(C(F)(F)F)cc3)CCC2=O)c1 (stereo unspecified)
→ 5.7, -5, 4.4, 1.0, -2, 35, -0.7, -12
42. O=C(Nc1ccncc1)c1ccc(-c2ccccc2)cc1
→ 0.6, 1, -2.5, 0.3, 1, 58*, 1.6, 11
43. COc1ccc(/C=N/n2cc(-c3ccc(OC)cc3)nc2N)cc1
→ 0.4, -1, /, -1.2, 3, 29, 4.9, -2
44. Cc1cccc(Nc2ncnc3onc(-c4cccc(Cl)c4)c23)c1
→ -0.8, 2, 1.2, 0.2, 15, -17, 1.3, 13
45. COc1ccc2cc(C#N)c(N3CCOCC3)nc2c1
→ 1.7, -14, -103, 1.8, -2, -2, -5.0, 3
46. CCN1CCN(C(=O)c2sc3ncnc(N4CCc5ccccc5C4)c3c2C)CC1
→ 3.0, -2, 4.7, 1.0, -4, -12, 1.8, 11
47. C[C@H]1CC[C@@]2(O[C@@H](CCO)C[C@@H](O)[C@@H]2O)O1
→ -0.4, -5, 4.6, 0.5, -3, -9, 7.9, -6
48. COc1cccc(-c2nnc(SCc3ccc(C#N)cc3)n2Cc2ccco2)c1
→ 2.0, 4, 2.4, 0.7, 11, 18, -3.3, -5
49. COc1ccc(-c2cc(C(=O)N3CCN(c4ncccn4)CC3)c3ccccc3n2)c(OC)c1
→ 4.0, 26, -37, 0.9, 5, 16, -1.3, 36
50. COC(=O)C1=C(N)c2c(F)cccc2C1(C#N)c1ccccc1 (stereo unspecified)
→ 2.3, 7, -10, 0.9, -5, 4, -3.0, 9
51. O=C(/C=C/c1ccccc1[N+](=O)[O-])NCc1ccccc1Cl
→ -2.0, 5, 1.5, -0.3, 0, -6, -2.8, -16
52. O=C(COC(=O)c1cccc(NS(=O)(=O)/C=C/c2ccccc2)c1)Nc1ccccc1OC(F)F
→ 2.3, -8, 4.8, 0.5, -4, -7, 2.3, -11
53. Cc1nn(C)c(=O)n1-c1ccc(Oc2ccccc2)cc1
→ -2.2, -20, 2.6, 0.5, /, -11, 4.5, -8
54. CC(=O)Nc1cc(C(C)(C)C)c(O)c(C(C)(C)C)c1
→ ?, -3, 5.1, -0.5, -7, 2, -3.8, -9
55. [O-][n+]1c2c(nn1-c1ccc(Cl)c(Cl)c1)-c1nonc1CC2
→ 0.4, -6, 1.6, -1.4, -2, 16, 3.7, -1
56. CCOC(=O)c1cc(-c2ccccc2)sc1NC(=O)C(C)N1C(=O)NC(C)(c2ccc(Cl)cc2)C1=O (stereo unspecified)
→ 5.3, -10, -25, -0.1, 2, 50, 2.1, -2
57. COCCCNc1ncnc2ccc(C)cc12
→ -1.3, 15, -1.3, -2.0, 63, 5, 6.0, -4
58. CCCCN(CC)C(=O)c1ccc(Cl)cc1
→ -1.7, -5, 4.7, 0.9, -7, -3, 0.4, 27
59. Cc1ccc(S(=O)(=O)N2CCN(C(=O)N3CCOCC3)C2C)cc1 (stereo unspecified)
→ -1.1, -2, 3.9, 0.1, 0, -2, 1.9, -1
60. Nc1nc(Cl)cc(Nc2ccccc2Cl)n1
→ -3.8, -6, 0.4, 0.3, 2, -15, 0.7, 3

Next section.
Fields: RanGTP-Impb inh, Beta2AR agonist, UCH37 inh, Bfl-1 A1 inh, Beta apoptosis, T cruzi repl, LANA-H2B inh, Calb FLC
61. CCC(=O)N1CCc2cc(S(=O)(=O)NC(C(=O)N3CCN(c4ccc(F)cc4)CC3)C(C)C)ccc21 (stereo unspecified)
→ -2.0, 1, /, -1.2, -3, 13, -3.0, -1
62. Cc1csc(=O)n1CCC(=O)NCc1ccc(F)cc1
→ /, 10, 3.1, 0.2, -1, /, -3.0, /
63. COn1c(SCc2ccc(Cl)cc2)nc2ccccc2c1=O
→ -0.2, -17, 2.9, 0.1, 0, -26, -6.2, 12
64. CNc1ccc(C2(O)C(=O)c3ccccc3C2=O)cc1
→ -3.0, 16, 6.4, 0.5, 2, -3, -0.5, ?
65. O=C(Nc1ccccc1F)c1ccc(CSc2ccccc2)o1
→ -2.0, -1, -0.1, -0.8, 0, -6, 2.3, 41
